Bioassay records: PubChem BioAssay, several laboratories
HNF4A DNA FP: change in binding of human HNF4A to DNA, primary screen, biochemical, fluorescence polarization, FITC-DNA | Hepatocyte nuclear factor 4-alpha (Homo sapiens), P41235 | activity change, % at 10 µM | 1 h | AID 1224865, 2016 | 360,000 compounds, 0.3% hits; in the data active means activity change above about 30%, passing the limit was not always enough;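 further: controls were the assay level and a saturating level of protein; the project sought stronger binding though the title names inhibitors; some compounds called inactive have numbers as strong as hits; positive values seem to mean higher polarization but the record does not say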
Target sequence (P41235 whole entry, looked up): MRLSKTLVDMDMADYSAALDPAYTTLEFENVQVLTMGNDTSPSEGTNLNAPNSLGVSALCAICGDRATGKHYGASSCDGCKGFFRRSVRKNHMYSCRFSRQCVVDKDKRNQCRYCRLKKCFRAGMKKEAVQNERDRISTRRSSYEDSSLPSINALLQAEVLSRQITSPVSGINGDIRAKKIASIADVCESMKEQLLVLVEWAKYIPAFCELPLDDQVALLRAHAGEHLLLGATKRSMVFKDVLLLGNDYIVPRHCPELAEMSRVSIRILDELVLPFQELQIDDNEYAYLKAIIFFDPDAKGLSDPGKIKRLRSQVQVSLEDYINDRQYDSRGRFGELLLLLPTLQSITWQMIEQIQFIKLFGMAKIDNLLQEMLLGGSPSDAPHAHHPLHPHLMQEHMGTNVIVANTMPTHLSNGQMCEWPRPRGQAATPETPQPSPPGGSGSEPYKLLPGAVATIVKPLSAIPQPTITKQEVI
UCH37 inh: inhibitors of human UCH37 deubiquitinase, primary screen, biochemical, Ub-AMC cleavage, fluorescence; Ubiquitin carboxyl-terminal hydrolase isozyme L5 (Homo sapiens), Q9Y5K5; purified proteasome/UCH37; inhibition, % (test concentration not listed); 330,000 compounds, 0.33% hits; AID 588478, 2011;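 active means mean of two replicates above 20%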;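 further: 0% = compound-free wells with enzyme and 100% = wells lacking proteasome; stock transfer was 100 nL into about 20 µL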
Target sequence (Q9Y5K5 whole entry, looked up): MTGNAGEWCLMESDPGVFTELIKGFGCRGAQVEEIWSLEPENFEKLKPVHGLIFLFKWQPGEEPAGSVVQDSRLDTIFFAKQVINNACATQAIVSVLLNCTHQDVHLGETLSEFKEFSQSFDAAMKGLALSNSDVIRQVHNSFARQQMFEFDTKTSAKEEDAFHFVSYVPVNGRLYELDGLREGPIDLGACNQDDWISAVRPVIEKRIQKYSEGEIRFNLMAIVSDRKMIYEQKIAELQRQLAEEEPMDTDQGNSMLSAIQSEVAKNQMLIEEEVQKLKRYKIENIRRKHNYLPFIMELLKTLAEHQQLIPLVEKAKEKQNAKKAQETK
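Material: Human UCH37 enzyme supplied as purified proteasome complex | Schedule: 30 min compound-proteasome preincubation then 25 min substrate reaction, room temperature | Detection: AMC fluorescence from Ub-AMC cleavage, excitation 355 nm, emission 460 nm | Benchmarks: Wells without proteasome as full block, compound-free enzyme plus substrate as uninhibited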
ALR inh: inhibitors of human ALR sulfhydryl oxidase, primary screen, biochemical, H2O2 detection, HRP-luminol luminescence, single point; FAD-linked sulfhydryl oxidase ALR (Homo sapiens), P55789; inhibition, % (test concentration not listed); 290,000 compounds, 3.8% hits; purified ALR, DTT oxidation;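 active means mean and each replicate at 75% or more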;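 further: stock transfer was 7.5 nL into about 7.5 µL; 0% = neutral wells and 100% = wells with inactivated enzyme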
Target sequence (P55789 whole entry, looked up): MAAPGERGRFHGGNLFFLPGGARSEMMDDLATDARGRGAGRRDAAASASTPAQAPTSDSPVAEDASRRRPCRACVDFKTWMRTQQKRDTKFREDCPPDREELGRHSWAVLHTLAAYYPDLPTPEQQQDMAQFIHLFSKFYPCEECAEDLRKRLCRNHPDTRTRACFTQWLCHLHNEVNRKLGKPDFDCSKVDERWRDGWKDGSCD
FGF22 binding: binders of human FGF22 protein, primary screen, FGF22 synaptogenesis inhibitor project, biophysical, thermal shift, single point; Fibroblast growth factor 22 (Homo sapiens), Q9HCT0; recombinant FGF22 thermal shift, SYPRO orange fluorescence; percent of sucrose octasulfate shift, DMSO zero; calls only at 9.99 µM; 340,000 compounds, 1.5% hits; AID 651658, 2012;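 active means melting point raised past a set limit in the mean and every replicate; three in four hits are not shown here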
B2AR ag: beta2AR agonists driving receptor internalization, primary screen, cell-based, FAP fluorogen, flow cytometry; AID 504454, 2011; 340,000 compounds, 0.43% hits; response, % (test concentration not listed); Am2.2-beta2AR cells; reference of the scale not given here;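 active means response above a set limit, near 3 SD of response in nonfluorescent compounds, cut at about 42% in these data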;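 further: stock transfer was 100 nL into about 11 µL; a reference agonist was the positive control; negative values mostly stem from fluorescent compounds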
LANA-H2B inh: blockers of LANA interaction with H2A/H2B – biochemical, FP readout, HTS, primary screen; Protein LANA1 (Human herpesvirus 8 type P (isolate GK18)), Q9QR71; cell-free LANA-H2A/H2B peptide, fluorescence polarization; inhibition, % (concentration not given with the values); 320,000 compounds, 0.6% hits; in the data active means inhibition mostly above about 10%, no sharp cut-off; inactive means mostly below about 6.7%;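 further: stock transfer was 7.5 nL into about 10 µL; 0% = median of vehicle wells and 100% = median of positive control wells; one replicate is shown; the record names a cut of 25% in any replicate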
E coli growth: E. coli growth inhibition, primary screen, OD600 | Escherichia coli growth, 23 h; hits give low values | OD600 absorbance (concentration not given with the values) | 330,000 compounds, 0.21% hits | AID 1053175, 2014;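 active means OD600 absorbance below the run mean of sample wells minus 3.6 SD, in any replicate, cut at about 0.56 in these data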;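 further: stock transfer was 300 nL into about 60 µL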
* = called active by the depositor; i = inactive; · = no result given. A portion of the library; rates above refer to the full screens.

SMILES	HNF4A DNA FP	UCH37 inh	ALR inh	FGF22 binding	B2AR ag	LANA-H2B inh	E coli growth
CCOCCCNC(=O)C(NC(=O)c1ccc(=O)[nH]c1)c1ccccc1 (stereo unspecified)	0.6	1.5	5.7	·	-3.5	-1.3	0.707
COc1ccc(-c2nnn(CC(=O)N(Cc3ccccc3Cl)C(C(=O)NCC3CCCO3)c3ccco3)n2)cc1OC (stereo unspecified)	1.7	1.9	-14.4	·	11.8	3.8	0.655
CC(=O)OC1CC(C)(C)N(OC(=O)c2ccccc2)C(C)(C)C1	-2.6	0.9	·	·	8.4	-2.3	0.652
COc1ccccc1-c1nnc(SCC(=O)Nc2ccc(N3CCOCC3)cc2)n1N	-1.7	5.2	29.0	·	-3.5	-10.2	0.734
Cc1nc2ncnn2c(N2CCCC(C(=O)Nc3ccccc3Br)C2)c1C (stereo unspecified)	0.4	3.4	1.3	i	0.2	-318.3	0.672
CN(C(=O)c1ccncc1)C1CCCCC1	-3.1	-0.5	-13.5	i	4.8	-1.2	0.707
O=c1cc(-c2ccncc2)oc2ccccc12	2.8	2.6	-8.3	·	0.5	1.4	0.708
CC(C)(O)C(=O)NN(C(=O)c1ccccc1)c1ccc2ccccc2c1	0.6	1.3	-0.4	·	1.0	-1.7	0.767
Cc1ccc2nc(N/C(=N/S(=O)(=O)c3ccc(F)cc3F)c3ccccc3)sc2c1	4.8	·	66.1	i	6.1	-4.1	·
CC(C)(C)c1ccc(S(=O)(=O)NCC(=O)N2CCCC2)cc1	2.1	2.1	-4.8	i	7.1	-4.2	0.659
Cc1cc(C)c(C)c(OCCCn2ccnc2)c1	-3.0	1.4	·	·	-2.4	2.2	0.678
COCCNC(=O)c1cnn2c(C(F)F)cc(-c3ccccc3)nc12	2.6	-6.6	2.7	i	2.8	1.4	0.68
O=C1c2cccc3cccc(c23)C(=O)N1CC1CCN(CC(O)COc2ccc3ccccc3c2)CC1 (stereo unspecified)	-5.6	-24.7	-12.7	i	81.9*	-1.0	0.614
C=CCN1CCN(C(c2ccccc2OC)c2nnnn2C(C)(C)C)CC1 (stereo unspecified)	0.2	3.6	-12.2	i	-1.5	1.1	0.685
COc1ccccc1Cn1c(-c2ccco2)nc2nc3ccccc3nc21	8.5	-17.3	69.2	·	4.4	-1.6	0.699
CCCCNC(=O)Nc1ccccc1C(=O)NCc1ccco1	3.2	-2.4	-2.1	·	0.7	1.5	0.694
COc1ccc(N2CCN(C(CNC(=O)C(C)(C)C)c3ccco3)CC2)cc1 (stereo unspecified)	1.3	1.8	60.6	i	4.8	-0.2	0.718
CCOc1ncccc1C(=O)Nc1ccc(Cl)c(S(=O)(=O)N2CCCC2)c1	2.3	-8.0	-1.7	i	5.1	-0.4	0.685
O=C(COC(=O)C1COc2ccccc2O1)Nc1ccccc1OC(F)F (stereo unspecified)	-0.3	1.3	·	i	-3.2	4.1	0.667
Cc1ccc(C(=O)N/C(=C\c2ccco2)C(=O)N2CCSCC2)cc1C	-5.0	2.8	-1.6	i	-0.7	-0.7	0.725
COc1ccccc1CNCCS(=O)(=O)NCc1ccccc1OC	2.7	·	·	i	-10.6	·	·
O=C1CC(C(=O)Nc2ccccc2C(=O)O)C(c2ccccc2)O1 (stereo unspecified)	1.4	2.2	-2.9	·	-1.3	-0.4	0.773
CC(=O)c1ccc(NC(=O)/C(C#N)=C/c2ccncc2)cc1	0.2	3.5	97.9*	i	2.1	6.7	0.71
c1ccc(NC2=Nc3ccccc3CS2)cc1	-0.4	-1.1	-5.6	·	0.3	2.2	0.702
CCCN1CCN(CCCNC(=O)Cn2nc(C)n3c(cc4cc(OC)ccc43)c2=O)CC1	1.3	-33.8	6.7	i	1.5	-4.0	0.713
CCCCNC(=O)COC(=O)C1CCN(S(=O)(=O)c2ccc3c(c2)OCCO3)CC1	5.8	1.9	-5.7	i	5.0	2.5	0.721
Cc1cc(SCC2=NNC(=O)C2)c(Cl)cc1Cl	3.6	3.3	55.0	i	-3.4	-5.0	0.669
O=C(Nc1ccc(S(=O)(=O)Nc2ncccn2)cc1)c1cncc(Br)c1	-1.1	4.8	·	·	12.5	2.4	0.76
C=CCN(c1ccccc1)S(=O)(=O)c1ccc2c(c1)NC(=O)C(C)C(=O)N2 (stereo unspecified)	-1.1	5.7	-1.0	i	4.1	0.1	0.785
COc1ccc(CC(=O)NNC(=O)c2ccncc2)cc1	0.5	4.6	-0.1	i	-0.6	-477.5	0.7
CCOC(=O)N1CCN(C(=O)c2cc(Cl)c(Cl)cc2C(=O)O)CC1	1.3	1.7	-8.8	i	2.0	6.7	0.617
CCOC(=O)c1ccc(NC(=O)CSc2ncccn2)cc1	3.3	2.8	·	·	-6.5	0.7	0.779
Cc1cccc2c1N(C(=O)c1ccco1)C(C)(C)c1ssc(=S)c1-2	-3.6	2.4	-4.7	·	1.2	6.2	0.73
O=C(Cc1ccccc1)Nc1cccc(NC(=O)c2cccs2)c1	-2.7	4.1	-5.3	i	-4.4	2.5	0.671
COc1cccc(C(C(=O)NC2CCCC2)N(C(=O)c2ccco2)c2ccccc2)c1OC (stereo unspecified)	0.5	4.7	-3.9	i	13.7	-1.0	0.675
Cc1cc(C(=O)CN2C(=O)NC3(CCCc4sccc43)C2=O)c(C)n1-c1ccc(Cl)cc1 (stereo unspecified)	1.4	3.3	-3.9	i	0.0	1.0	0.715
Cc1[nH]c2ccccc2c1CCNC(=O)CCC(=O)c1ccccc1	-1.3	3.7	95.3*	i	-0.5	-0.3	0.715
Cn1c(SCC(=O)NC(=O)NCc2ccco2)nnc1C(F)(F)F	-0.9	-1.0	-5.9	·	5.5	2.0	0.741
CC(C)c1ccc(NC(=S)NCc2cccs2)cc1	2.3	0.7	65.1	·	-17.6	-4.1	0.651
O=C(NC(=S)NCc1ccccc1)c1cccs1	0.8	-0.7	37.2	i	-24.3	8.5	0.631
CC(C)CN(C(=O)COC(=O)C1=COCCO1)c1c(N)n(Cc2ccccc2)c(=O)[nH]c1=O	-0.8	-0.5	-7.5	i	0.2	1.0	0.682
COc1ccc(N(Cc2ccco2)C(=O)c2ccccc2F)cc1OC	3.8	0.2	-22.3	·	-17.5	3.2	0.759
CCOC(=O)C1(Cc2ccccc2C)CCCN(C(=O)c2ccoc2)C1 (stereo unspecified)	-0.6	2.0	2.6	i	6.9	3.4	0.677
COCCCNC(=O)c1ccc2c(=O)n(Cc3ccc(OC)cc3)c(=O)[nH]c2c1	-1.7	-2.4	-7.4	i	-2.1	2.2	0.683
O=S1(=O)N=C(SCCO)c2ccccc21	-0.8	3.6	0.3	·	-0.7	-3.4	0.751
CCOC(=O)N1CCN(C(=O)COC(=O)C2CCN(S(=O)(=O)c3c(Cl)cccc3Cl)CC2)CC1	-0.5	3.3	·	i	-9.8	1.3	0.664
CCN1CNC(=S)N(Cc2ccccc2)C1	2.1	-0.4	-3.7	i	9.7	0.3	0.661
Cn1nccc1C(=O)c1ccc(Cl)cc1	3.2	2.2	-15.2	·	-9.8	-1.7	0.762
Cc1cccc(N2CCN(C(=O)c3ccc4nc(N5CCCCC5)sc4c3)CC2)c1C	3.2	0.4	·	i	8.5	-3.0	0.848
CC(=O)Nc1ccc(S(=O)(=O)Nc2cccc(-c3nc4cc(C)ccc4o3)c2)cc1	-3.5	3.1	-3.1	i	4.1	-5.1	0.673

New compounds follow.
SMILES	HNF4A DNA FP	UCH37 inh	ALR inh	FGF22 binding	B2AR ag	LANA-H2B inh	E coli growth
O=C(NNC(=O)c1ccccc1Br)c1ccc(SCC2CCCO2)c([N+](=O)[O-])c1 (stereo unspecified)	3.2	4.7	-40.8	·	-15.6	4.4	0.657
O=C(NN1CCOCC1)c1ccc(S(=O)(=O)N2CCCCC2)cc1	-0.2	2.7	-6.1	i	0.1	1.7	0.699
COc1ccc(/C=N/c2c(-c3ccc(OC)cc3)nc3n2CCS3)cc1	0.3	·	6.7	·	-14.0	3.2	·
CCOC(=O)c1sc(NC(=O)/C=C/c2cnn(C)c2C)c(C(=O)OCC)c1C	·	-77.3	-1.7	·	·	1.2	0.676
CCCNC(=O)c1cc(-c2ccc(OC)cc2)on1	-3.4	4.0	-1.1	·	-3.2	-2.3	0.73
Cc1ccc(-c2nc3ccccc3[nH]2)s1	-9.3	-31.4	43.6	·	-7.1	-1.0	0.67
Cc1cc(C)c(N(C(=O)CN2C(=O)c3ccccc3S2(=O)=O)C(C(=O)NCC2CCCO2)c2ccc(F)cc2)c(C)c1 (stereo unspecified)	-0.8	9.2	-2.8	·	5.3	2.4	0.701
Cc1ccc(NC(=O)COC(=O)c2ccn(C)n2)cc1	-1.4	-0.8	1.3	i	-4.8	-13.3	0.715
Cc1cccc(-n2c(-c3csc(C(C)C)c3)n[nH]c2=S)c1	-1.0	4.7	·	·	11.8	·	0.711
Clc1ccccc1OCc1nc(-c2ccncc2)no1	0.9	5.0	-1.5	·	-14.5	-1.4	0.663
O=C(Nc1ccc2c(c1)OCO2)C1CCCN1C(=O)Nc1cccc(F)c1 (stereo unspecified)	-1.5	2.7	0.1	·	20.1	1.9	0.737
CC1CCN(CCCn2c(=S)[nH]c3ccccc3c2=O)CC1	0.3	4.7	-5.4	·	-9.8	7.8	0.744
O=C(NC1CCCC1)C(c1ccncc1)N(Cc1cccs1)C(=O)c1csnn1 (stereo unspecified)	-0.1	3.9	-7.1	·	-15.8	6.3	0.715
O=C(c1cccs1)N1CCC(c2nc3c(nnn3Cc3cccc(Cl)c3)c(=O)[nH]2)CC1	0.3	6.4	·	i	4.5	-0.9	0.674
Cc1ccc2c(CN3CCCCC3CCO)cc(=O)oc2c1 (stereo unspecified)	1.6	1.5	·	i	-1.7	-4.1	0.649
O=C(NC1CCCCCC1)c1cc2ccccc2oc1=O	0.0	-7.2	·	i	-8.9	1.8	0.685
COc1ccc(NC(=O)CN(C)S(=O)(=O)c2ccc3c(c2)OCCO3)c2ncccc12	4.7	1.0	-1.8	·	-0.5	-5.4	0.711
N#Cc1sc(NCc2ccccc2)nc1Cl	1.3	-0.3	-0.1	i	1.3	0.3	0.598
Cc1cc(C)c(NC(N)=S)c(C)c1	2.0	0.8	-3.2	i	-1.6	-4.9	0.64
CCCCCCCCNCCS(=O)(=O)NN1CCOCC1	4.5	2.4	·	i	-4.2	·	0.645
Cc1onc(-c2c(F)cccc2Cl)c1C(=O)Nc1ccc(S(=O)(=O)Nc2ncccn2)cc1	-3.5	-1.3	·	·	5.4	·	0.758
Cc1cc(C)cc(NC(=O)Cn2nnc(C(=O)NCc3ccco3)c2N)c1	16.5	3.2	0.0	i	-2.3	6.0	0.6
Cc1ccc(C(NC(=O)NCCCN2CCOCC2)=C(Cl)Cl)cc1F	0.7	4.2	-5.8	·	-1.1	-2.7	0.719
O=C(Cn1cnc2c(oc3ccccc32)c1=O)NCc1ccccc1	-2.9	0.6	-9.2	i	-4.1	3.1	0.704
O=C(CC1(CC(=O)N2CCOCC2)CCCC1)Nc1ccc(F)cc1	-2.1	0.2	-5.4	i	-2.9	-6.8	0.722
Cc1nnc(N)s1	-0.6	-3.4	-3.6	i	2.1	1.0	0.674
O=C(Nc1ccccc1-c1nc2ccccc2s1)c1ccco1	-1.4	4.3	2.2	·	5.2	2.1	0.75
CCN(c1ccc(NC(=O)CSc2ccc3c(c2)OCCO3)cc1)C(C)C	-0.5	1.0	62.2	i	9.8	1.0	0.699
